Source: PubChem BioAssay
RanGTP-Impb inh: inhibitors of RanGTP-importin-beta interaction, primary screen, biochemical, FRET, CFP-Ran, YFP-importin-beta, homogeneous; inhibition, % (test concentration not listed); hit rate 1.1% among 300,000; cell-free CFP-Ran/YFP-importin-beta FRET ratio;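 active = most replicates above 15%; inconclusive = exactly half above 15%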;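 also: 0% = DMSO wells and 100% = Ran loaded with GDP instead of GTP; wells of about 40 µL received 100 nL stock; the first replicate is given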
FGF22 binding: FGF22 (human) thermal shift binding | hit rate 1.5% among 340,000 | calls only at 9.99 µM | Q9HCT0 | recombinant FGF22 thermal shift, SYPRO orange fluorescence; percent of sucrose octasulfate shift, DMSO zero;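 active = melting point raised past a set limit in the mean and every replicate; inconclusive = no clear call; three in four hits are not shown here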
Target sequence (Q9HCT0 whole entry, looked up): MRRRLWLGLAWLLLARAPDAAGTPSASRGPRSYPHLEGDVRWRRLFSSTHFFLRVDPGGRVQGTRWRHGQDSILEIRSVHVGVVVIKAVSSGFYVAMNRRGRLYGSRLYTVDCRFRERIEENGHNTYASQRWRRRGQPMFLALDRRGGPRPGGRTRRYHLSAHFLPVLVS
MLL AF4-AF9 inh: inhibitors of human MLL-AF4/AF9 interaction; hit rate 0.47% among 350,000; P42568; inhibition, % at 10 µM; AlphaScreen, biotin-AF4 peptide binding to FLAG-AF9;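 active = every replicate reaching a set inhibition limit, whatever the replicate mean, cut at about 25% in these data; inconclusive = mean inhibition reaches that limit but some replicates miss it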;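 also: 0% = plate neutral control median and 100% = total signal loss; the record names both 10 and 1 µM as test concentration; the first replicate is given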
Target sequence (P42568 whole entry, looked up): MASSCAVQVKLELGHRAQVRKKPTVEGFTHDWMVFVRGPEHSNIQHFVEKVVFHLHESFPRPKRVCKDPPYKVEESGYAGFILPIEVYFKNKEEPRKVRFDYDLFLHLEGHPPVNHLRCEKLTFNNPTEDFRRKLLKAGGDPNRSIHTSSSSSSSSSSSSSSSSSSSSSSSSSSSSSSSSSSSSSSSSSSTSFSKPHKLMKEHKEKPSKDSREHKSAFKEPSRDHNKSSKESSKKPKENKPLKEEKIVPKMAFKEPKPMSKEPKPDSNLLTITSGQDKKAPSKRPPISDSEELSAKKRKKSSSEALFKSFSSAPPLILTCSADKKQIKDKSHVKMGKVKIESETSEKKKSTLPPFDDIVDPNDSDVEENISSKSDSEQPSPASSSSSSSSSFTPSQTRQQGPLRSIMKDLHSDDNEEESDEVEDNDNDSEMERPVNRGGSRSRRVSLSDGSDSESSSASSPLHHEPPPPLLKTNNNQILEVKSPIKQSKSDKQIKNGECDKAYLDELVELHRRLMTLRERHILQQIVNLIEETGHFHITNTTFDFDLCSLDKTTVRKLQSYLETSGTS
T cruzi inh: T. cruzi replication inhibition; T. cruzi beta-gal in NIH3T3, luminescence, 90 h; inhibition, % (concentration not given with the values); hit rate 1.4% among 300,000; AID 1885;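 active = mean inhibition across valid replicates above about 55%, limit read from the data; inconclusive = mean below that limit but half or more replicates reach it; inactive = mean below it, under half of replicates reach it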;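 also: signal also drops with host cell toxicity which is not excluded here; 0% = plate median of DMSO wells and 100% = zero luminescence signal; higher percent means less beta-gal luminescence so fewer parasites; stock transfer was 50 nL into about 50 µL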
rRNA inh HTS: selective bacterial rRNA inhibition in E. coli | AID 720706 | GFP signal change (wild-type ribosome), % (no concentration beside the values) | hit rate 1.6% among 350,000 | E. coli WT GFP vs humanized-ribosome RFP mutants, fluorescence, 24 h; hits give low values; DMSO median 0, no signal -100;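 active = significant combined selectivity score with lowered wild-type GFP, culture density cut under 30%, mutant RFP and density less affected; inactive = any of these conditions unmet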; also: one replicate is shown; some compounds called inactive have numbers as strong as hits
ALR inh: inhibitors of human sulfhydryl oxidase ALR. P55789. purified ALR, DTT oxidation, H2O2 HRP-luminol luminescence. inhibition, % (test concentration not listed). hit rate 3.8% among 290,000. AID 485317;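 active = mean and each replicate at 75% or more; inconclusive = only one of the two met; inactive = neither met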;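 also: stock transfer was 7.5 nL into about 7.5 µL; 0% = neutral wells and 100% = wells with inactivated enzyme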
Target sequence (P55789 whole entry, looked up): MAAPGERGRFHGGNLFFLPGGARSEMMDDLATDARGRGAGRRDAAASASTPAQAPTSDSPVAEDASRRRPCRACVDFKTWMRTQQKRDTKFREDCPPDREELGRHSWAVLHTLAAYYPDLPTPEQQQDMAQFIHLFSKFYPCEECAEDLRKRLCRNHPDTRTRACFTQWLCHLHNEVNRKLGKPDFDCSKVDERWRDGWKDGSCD
Beta cell apopt: blocks beta cell apoptosis; hit rate 0.8% among 300,000; INS-1E cytokine-induced death, ATP luminescence, 48 h; percent of positive-control rescue, neutral wells zero; protection from apoptosis, % (no concentration beside the values);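 active = all replicates at 75% or more, or half of them and the mean; inconclusive = half reach 75% but not the mean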;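 also: 0% = cytokine-treated negative control wells and 100% = positive control rescue; higher means more ATP so stronger rescue from cytokine killing; wells of about 40 µL received 100 nL stock; the first replicate is given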
Calb FLC: C. albicans growth modulation with fluconazole. C. albicans CaCi-2 (fluconazole-resistant clinical isolate) + fluconazole, Alamar Blue growth, 48 h. growth inhibition, % (no concentration beside the values). hit rate 0.57% among 300,000;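 active = most replicates above 75%; inconclusive = exactly half above 75%; inactive = most below 75%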;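 also: all wells also contain fluconazole at 8 µg/ml as a sub-toxic cotreatment; 0% = median of DMSO wells and 100% = median of geldanamycin control wells; wells of about 8 µL received 7.5 nL stock; the first replicate is given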
rRNA inh HTS OD600: second read-out of rRNA inh HTS, no call of its own (marks repeat the call); OD600 change, %; measured here: OD600 growth;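 optical density of the mix in the first replicate; 0 = DMSO median and -100 = no signal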
rRNA inh HTS RFP: further read-out of rRNA inh HTS, marked with its call; RFP signal change, %; measured here: RFP humanized mutant strains;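 first replicate; 0 = DMSO median and -100 = no signal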
* marks the source's active call; other numbers are inactive results; i = inactive; ? = inconclusive; nt = no result given. These rows are one share of the data; the hit share may differ from the screen's.

SMILES | RanGTP-Impb inh | FGF22 binding | MLL AF4-AF9 inh | T cruzi inh | rRNA inh HTS | rRNA inh HTS OD600 | rRNA inh HTS RFP | ALR inh | Beta cell apopt | Calb FLC
CC(=O)N1c2ccc3ccccc3c2C(C)CC12CCCCC2 (centres undefined) | 2.6 | nt | nt | 7 | nt | nt | nt | -1 | 5 | 5
CC1CCc2nc(/C(C#N)=C/c3ccncc3)sc2C1 (centres undefined) | 12 | i | -0.5 | 26 | 2 | -7 | -2.4 | 98* | -5 | 27
CCC(C(=O)OCC(=O)NCc1ccc2c(c1)OCO2)c1ccccc1 (centres undefined) | nt | i | -3.1 | nt | -12 | -19 | -0.7 | -4 | 3 | nt
CS(=O)(=O)c1ccc(C(=O)Nc2ccccc2N2CCOCC2)c(Cl)c1 | ? | i | -3.9 | 1 | 2 | -6 | 0.6 | -6 | -2 | 12
O=C(CN1CCN(c2ccccc2)CC1)Nc1cccc([N+](=O)[O-])c1 | 5.2 | i | -0.2 | -14 | 19 | 13 | 0.6 | 5 | nt | 0
Cc1cc(C)nc(CCNC(=O)C2CCC(=O)N(Cc3ccccc3F)C2)n1 (centres undefined) | 0.3 | i | 0.7 | -16 | 7 | 13 | -2.7 | 15 | -4 | 1
CSc1ncccc1C(=O)OCC(=O)NC(C)CCc1ccccc1 (centres undefined) | nt | i | -1.1 | nt | -7 | -22 | -5.2 | -4 | -3 | nt
COc1ccccc1NS(=O)(=O)c1cc(NC(=O)CCc2nc3ccccc3c(=O)[nH]2)ccc1C | 0.7 | i | -8.2 | 3 | -19 | -15 | 14 | -2 | 6 | nt
COc1ccc(/C=C/C(O)=C2/C(=O)N(C)C3(C)CC2c2ccccc2O3)cc1 (centres undefined) | ? | nt | nt | 31 | nt | nt | nt | nt | -4 | -1
CC(C)CC(CO)N1CCN(C(=O)c2ccccc2)CCC1=O (centres undefined) | -8.1 | i | -4.1 | -9 | 12 | 21 | 12 | nt | -1 | -1
CCN(Cc1nc2ccccc2c(=O)[nH]1)C(=O)c1cc2c(s1)CCCCC2 | nt | i | -2.5 | nt | 4 | -10 | 16 | -1 | 3 | nt
Oc1ccccc1CNc1cnc2ccccc2c1 | 8.3 | i | 11 | -6 | -10 | -24 | -0.8 | 86* | 31 | -11
CCCCOC(=O)c1ccc(NC(=O)C(=O)NCC2CCCO2)cc1 (centres undefined) | -2.0 | nt | nt | -4 | nt | nt | nt | -2 | 1 | 1
Cc1n[nH]c(=O)c2c(NC(=O)CSc3nc4ccccc4c(=O)n3CCCO)oc(C)c12 | 2.7 | i | -1.7 | -3 | 22 | 26 | 2.1 | -5 | 0 | 0
CCc1ccc(NC(=O)C(NS(=O)(=O)c2cccc3nsnc23)c2ccccc2)cc1 (centres undefined) | -5.9 | nt | nt | 4 | nt | nt | nt | 1 | -4 | -7
ClC1(Cl)CC1Cn1cnc2ccccc21 (centres undefined) | -0.9 | i | -3.5 | -5 | 8 | 2 | 0.9 | 1 | 1 | -9
COc1ccc(CCNC(=O)CCC(=O)Nc2ccc3nc(N4CCN(C)CC4)cc(C)c3c2)cc1OC | ? | i | 0.0 | 29 | 9 | 12 | -8.0 | -6 | 2 | -4
CC12CCC(C(=O)N(NC(=O)c3ccc(O)cc3)C1=O)C2(C)C (centres undefined) | -0.6 | i | 3.0 | -22 | 1 | -6 | -5.7 | -7 | 3 | -1
COc1cccc(-c2nc(NC(C)C)c3ccccc3n2)c1O | -4.0 | nt | nt | 38 | nt | nt | nt | 18 | nt | 86*
CCc1nnc(NC(=O)CCc2c[nH]c3ccccc23)s1 | -0.8 | nt | -1.7 | -1 | -10 | -8 | 4.3 | -11 | 4 | 0
O=C1CCC/C(=N\NC(=O)c2ccc(COc3ccccc3-c3ccccc3)cc2)C1 | 10 | i | 5.2 | 17 | -37 | -38 | -8.6 | 2 | -1 | -5
Cc1ccc(S(=O)(=O)N2CCC(C(=O)NC3CC(C)(C)NC(C)(C)C3)CC2)cc1C | 2.8 | i | -3.5 | -4 | -1 | -4 | -4.1 | 2 | -6 | -2
COc1ccccc1-c1nc(C#N)c(N2CCN(c3cccc(Cl)c3)CC2)o1 | -1.4 | i | -7.6 | 18 | 2 | 9 | 5.1 | -3 | -3 | 42
CCOCCCNC(=O)C1CCC(CNS(=O)(=O)c2ccc(Cl)cc2)CC1 (centres undefined) | ? | i | -2.4 | 0 | 3 | -9 | 0.0 | 1 | -5 | 8
COc1cc(NC(=O)C2CC2)c(OC)cc1NC(=O)CCC(=O)NC1CCN(Cc2ccccc2)CC1 | -2.9 | i | 1.9 | 27 | 11 | 7 | 4.2 | -1 | 4 | 5
N#Cc1nccnc1N1CCN(C(=O)Nc2ccccc2)CC1 | 1.3 | i | -3.5 | 3 | 9 | 6 | -1.8 | -1 | -2 | 2
CCC(CC)C(=O)N1CCN(Cc2nc3ccccc3c(=O)[nH]2)CC1 | -0.1 | i | -8.9 | -15 | 9 | 9 | 0.7 | -10 | -3 | 3
O=C(O)c1cc2cc(F)ccc2[nH]1 | -2.2 | i | -3.7 | 17 | 0 | 3 | -4.2 | nt | 2 | nt
COc1ccc(C(=O)CSc2nnc3ccc(-c4ccccn4)nn23)cc1 | -0.5 | i | -11 | -11 | 10 | 10 | 5.0 | -1 | -6 | 6
O=C(/C=C1\SC(=O)N(CC(=O)Nc2ccc(F)cc2)C1=O)Nc1ccc(Cl)cc1 | ? | i | -13 | -19 | nt | nt | nt | -5 | nt | 8
COc1ccc(N2CCN(C(=O)CSc3nnc4c5cc(C)ccc5n(C)c4n3)CC2)cc1 | 2.3 | nt | nt | 30 | nt | nt | nt | -9 | 0 | 2
N#Cc1c(N)n(CCc2ccc(F)cc2)c2nc3ccccc3nc12 | 44* | nt | nt | 28 | nt | nt | nt | 7 | 6 | -11
CC1(C)Oc2ccc3ccc(=O)oc3c2C[C@H]1O[C@@H]1O[C@H](CO)[C@@H](O)[C@H](O)[C@H]1O | nt | i | -2.6 | nt | 20 | 14 | 3.5 | -6 | -6 | nt
O=C(CCCOc1ccc(Cl)cc1Cl)N1CCN(c2ccccn2)CC1 | -3.7 | nt | nt | 0 | nt | nt | nt | -50 | 0 | 26
Cc1ccc(-n2nc3c(c2NC(=O)C(C)(C)C)CSC3)c(C)c1 | -1.0 | nt | nt | 11 | nt | nt | nt | nt | 4 | 12
CC(C)(C)c1nnc(N/N=C/c2cc(Br)ccc2O)n(N)c1=O | -0.2 | nt | nt | -31 | nt | nt | nt | -9 | 95* | -33
O=C(OCC(=O)c1c[nH]c2ccccc12)c1ccc(Br)o1 | 0.7 | i | 5.4 | -2 | -40 | -19 | 3.2 | -5 | -3 | 15
O=C(N/N=C/c1c[nH]c2ccccc12)c1cc(-c2cccc3ccccc23)n[nH]1 | -4.6 | i | 2.6 | -2 | -5 | -6 | 0.3 | -2 | 16 | 27
C#CCOCCOCCOCCNc1nc(N2CCN(C(=O)[C@H](CCCCN)n3cc([C@@H](N)[C@H](C)CC)nn3)CC2)nc(N2CCN(C(=O)[C@H](CCCCN)n3cc([C@@H](N)CC(N)=O)nn3)CC2)n1 | nt | i | 60* | nt | 7 | 5 | 0.5 | -2 | -3 | nt
CSc1ccccc1NC(=O)CSCc1nc2sc(C)c(C)c2c(=O)[nH]1 | -8.5 | i | 4.9 | -8 | -7 | -6 | 0.5 | 57 | -1 | 13
COc1ccc(C2CC(c3ccc(Cl)cc3)n3nc(N)nc3N2)cc1 (centres undefined) | -0.3 | i | -6.5 | 13 | 8 | 8 | 3.0 | nt | -6 | 0
COc1ccc(N(C(=O)CNC(=O)c2cccs2)C(C(=O)NCC2CCCO2)c2ccccc2)cc1OC (centres undefined) | 0.9 | i | -1.6 | -12 | 9 | 15 | -5.3 | -15 | -4 | 21
COc1ccc(CC(=O)NNS(=O)(=O)c2ccc(F)cc2)cc1 | -0.5 | i | -7.8 | -8 | 4 | 8 | -0.8 | nt | 3 | -4
COc1ccccc1NS(=O)(=O)c1ccc(O)c(C(N)=O)c1 | 3.5 | nt | nt | 4 | nt | nt | nt | -5 | -17 | 1
Cn1c(C(=O)N2CCCC(C(=O)c3ccc(C(F)(F)F)cc3)C2)cc(=O)n(C)c1=O (centres undefined) | -1.6 | nt | -0.4 | 2 | -2 | -6 | 1.4 | -2 | nt | -3
O=C(C[C@@H]1C/C=C/CC[C@@H](Cc2ccc(F)cc2)C(=O)OCCNC1=O)N[C@H](CO)Cc1ccccc1 | nt | i | -3.5 | nt | -5 | -6 | -1.0 | -5 | -1 | nt
COc1cc(OC)c2c(C)cc(=O)oc2c1 | 0.9 | nt | nt | -4 | nt | nt | nt | 14 | -2 | 1
CC1CN(C(=O)CN2C(=O)NC3(CCCCCCC3)C2=O)CC(C)O1 (centres undefined) | 3.4 | nt | nt | -2 | nt | nt | nt | -7 | -11 | -9
O=C(NCc1nnc(SCC(=O)N2CCCCC2)o1)c1ccc(F)cc1 | nt | i | -0.1 | -6 | 10 | 12 | 3.1 | -1 | -8 | nt
C[C@H](NC(=O)C1CCN(S(=O)(=O)c2ccccc2)CC1)C(=O)NCc1cccc(C(F)(F)F)c1 | 0.5 | i | -0.3 | 5 | -11 | -15 | -4.9 | -3 | 0 | -4
COCc1c(C(=O)Nc2ccc(Cl)cc2F)oc2ccccc12 | -1.1 | i | -5.9 | 32 | 16 | 22 | 2.6 | 6 | 1 | 27
COc1cc(CNC(=O)c2nc(Cn3nc(C)c(Br)c3C)no2)cc(OC)c1 | -2.7 | i | -0.1 | 5 | -34 | -52 | 8.1 | -4 | -4 | 33
c1ccc(CCNc2ncnc3ccccc23)cc1 | -2.2 | i | -1.9 | 22 | -2 | 2 | -1.9 | nt | 100* | 94*
CCC1Sc2ccc(S(=O)(=O)CCC(=O)Nc3ccc(NC(C)=O)cc3)cc2NC1=O (centres undefined) | 7.7 | i | 3.2 | -6 | 0 | 2 | -0.5 | -4 | -4 | 3
CSCCC(NC(=O)c1cccc([N+](=O)[O-])c1)c1nc2ccccc2[nH]1 (centres undefined) | 0.5 | i | 6.0 | 0 | 5 | 5 | -0.1 | -5 | 2 | 39
O=C(CCNS(=O)(=O)c1ccccc1C(F)(F)F)NNC(=O)c1csc(N2CCOCC2)n1 | 0.6 | i | -8.3 | -4 | 11 | 18 | 2.6 | -2 | -6 | -3
O=S(=O)(c1ccc(OCC(O)CN2CCN(c3ccc(F)cc3)CC2)cc1)N1CCOCC1 (centres undefined) | ? | nt | nt | 28 | nt | nt | nt | 53 | -4 | -19
O=C(Cn1cccc(C(F)(F)F)c1=O)c1ccc(Cl)cc1 | -2.4 | i | -4.3 | -11 | 15 | 6 | 1.4 | -1 | nt | 8
